Screens as filed in PubChem.
GIV-Gai inh: GIV-Galpha-i interaction inhibition; P08753; Galpha-i3/FITC-GIV peptide fluorescence polarization, 90 min; active compounds read low; scaled: aluminum fluoride 0%, vehicle 100%; percent of control (FP), % (no concentration beside the values); 210,000 compounds, 0.42% hits; AID 1224905;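 active means replicate mean at 85% of control or lower, very high polarization wells dropped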;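 further: wells of about 15 µL received 100 nL stock; the first replicate is given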
Target sequence (P08753 whole entry, looked up): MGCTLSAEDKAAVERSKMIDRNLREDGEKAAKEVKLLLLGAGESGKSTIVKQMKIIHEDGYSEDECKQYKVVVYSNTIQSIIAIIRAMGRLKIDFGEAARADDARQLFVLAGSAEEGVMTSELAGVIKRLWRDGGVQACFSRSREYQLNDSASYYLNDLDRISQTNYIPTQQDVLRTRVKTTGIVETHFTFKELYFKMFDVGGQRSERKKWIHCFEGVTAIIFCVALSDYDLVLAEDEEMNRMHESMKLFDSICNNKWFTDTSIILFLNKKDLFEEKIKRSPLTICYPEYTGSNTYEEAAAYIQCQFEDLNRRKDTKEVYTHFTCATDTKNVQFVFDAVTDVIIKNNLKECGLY
HCMV UL50-53 inh: disrupts HCMV UL50-UL53 complex binding | HTRF UL50-UL53 interaction, normalized percent inhibition | inhibition, % (test concentration not listed) | 190,000 compounds, 0.15% hits | AID 1918969;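 active means both replicates at 50% or more, plus weaker picks with an unusually low signal ratio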;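 further: stock transfer was 100 nL into about 20 µL; 0% = negative control wells and 100% = wells with untagged competitor protein; inactives centre near -12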
Sa growth 42C: S. aureus growth inhibition; S. aureus RN4220 growth, OD600, 20 h, 42 °C; active compounds read low; relative growth, % (test concentration not listed); 170,000 compounds, 0.53% hits;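 active means growth at 42 °C up to 50% and 20 or more points under that at 30 °C, or under 10% at both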;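 further: 300 nL library stock went into each well; scaled to the means of positive and negative controls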
Sa growth 42C second temp: also measured in Sa growth 42C; calls as there; relative growth, %; measured here: growth at 30 °C;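 optical density after 20 h as mean of two plates; 100% = untreated growth and lower means inhibition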
* = called active by the depositor; . = not tested or not shown; & = joins results of further samples.

SMILES	GIV-Gai inh	HCMV UL50-53 inh	Sa growth 42C	Sa growth 42C second temp
CN1CCN(NC(=O)c2ccc(Cl)cc2)CC1	110	-40	125	96
CN=c1scc(-c2c(-c3ccccc3)n(C)c3ccccc23)n1C	.	-26	84	55
Cc1ccc(-c2nnn(CCOc3ccccc3Cl)n2)cc1	.	-7	105	92
O=C(CSc1nnc(CNC(=O)c2ccccc2F)o1)Nc1ccc2c(c1)OCCO2	108	3	100	96
O=C(CSc1nccn1Cc1ccc(F)cc1)NCc1ccc(F)cc1	97	.	84	89
CC1CCc2nc3ncn(CC(=O)Nc4cccc(C#N)c4)c(=O)c3cc2C1 (stereo unspecified)	108	.	87	91
CC1CCC(NC(=O)C2c3cccn3CC(=O)N2CCc2ccc(Cl)cc2)CC1 (stereo unspecified)	101	-29	.	.
CCOC(=O)c1cccc(NC(=O)c2cc(C)nc3c2c(C)nn3-c2ccc(C)cc2)c1	104	.	89	85
S=c1nc(CCCCc2nc(=S)[nH][nH]2)[nH][nH]1	100	-39	98	74
CC(=O)N1CCN(S(=O)(=O)c2cccc(C(=O)OCC(=O)N3N=C(c4ccc(C)cc4)CC3c3ccco3)c2)CC1 (stereo unspecified)	.	-9	110	96
CCCOC(=O)c1ccc2c(c1)C(=O)N(c1ccccc1)C2=O	100	-32	108	94
CCc1cc2c(cc3n2CC(C)(C(=O)NC2CCCCC2)N(CCCOC(C)C)C3=O)s1 (stereo unspecified)	104	9	.	.
Cc1cccc(-n2[nH]nnc2=S)c1	.	3	90	75
Brc1cc(Br)c2c(c1)C=C1CCCCCC1(N1CCOCC1)O2 (stereo unspecified)	100	.	105	86
COc1ccccc1NC(=O)c1c(C)nc(SCC(=O)OC(C)C)c(C#N)c1-c1ccco1	.	-28	103	92
CC1CCN(C(=O)Cn2cnc3c(cnn3-c3ccccc3)c2=O)CC1	100	.	101	92
O=C(c1cnc2sccn2c1=O)N1CCN(c2cccc(Cl)c2)CC1	101	-1	.	.
CCOC(=O)c1cn2c3c(ccc(C)c3c1=O)OC(CC)C2 (stereo unspecified)	106	.	85	70
Cc1ccc2c(=O)cc(C(=O)N3CCN(C)CC3)oc2c1C	101	-9	.	.
CCOc1ccc(NC(=O)Cn2ccn(-c3ccc(F)c(F)c3)c(=O)c2=O)cc1	97	8	102	95
Nc1nc(COc2ccccc2Cl)ncc1S(=O)(=O)c1ccccc1	99	2	95	103
Cc1cc(C)cc(NC(=O)C(=O)NCC(c2ccc3c(c2)OCO3)N2CCOCC2)c1 (stereo unspecified)	96	.	115	91
Cc1ccc(N2C(=S)NC3c4cc(Cl)ccc4OC2(C)C3C(=O)Nc2ccc(C)cc2C)cc1 (stereo unspecified)	109	.	102	101
COc1cc(=O)n(-c2ccc(C)cc2)nc1C(=O)Nc1ccc(Br)cc1F	104	-6	.	.
CC(C)NC(=O)c1ccc(CS(=O)c2ccc(Cl)cc2)o1 (stereo unspecified)	112	-12	104	98
O=C(c1cccc(-n2cnc3cccnc32)c1)N1CCN(c2ccccc2)CC1	103	-2	.	.
Cc1noc2ncn(CC(=O)N3CCC(C)CC3)c(=O)c12	98&101	-19&-1	89	91
O=C(CCCn1c(=O)c2sccc2n(CC(=O)c2ccccc2)c1=O)NCc1ccc2c(c1)OCO2	103	-4	104	91
Cn1c(N)c(C(=O)CSc2nnc(C3CC3)n2-c2ccccc2)c(=O)[nH]c1=O	.	-35	110	84
Cc1ccc(NC(=O)CSc2cn(CC(=O)N3CCOCC3)c3ccccc23)cc1Cl	102	.	111	88
O=C1C2C3C=CC(C3)C2C(=O)N1CCN1CCN(S(=O)(=O)/C=C\c2ccccc2)CC1 (stereo unspecified)	111	-1	.	.
CC(=O)Nc1ccc(NC(=O)c2cccc(N(C)C)c2)cc1	.	-19	84	92
CCC1Oc2ccc(C)cc2N(CC(=O)NCCc2ccccc2)C1=O (stereo unspecified)	103	.	120	85
COC(=O)/C(=C/N(C)C)NC(=O)c1ccccc1	109	4	101	96
CCOC(=O)N1CCC(Nc2nc3ccccc3c3nnc(C)n23)CC1	103	17	103	99
CCOc1ccc(-c2nonc2NC(=O)c2oc3ccc(Br)cc3c2C)cc1	101	6	69	65
COc1ccccc1CNC(=O)c1cccc(F)c1	.	-11	120	97
Cc1c(Cl)cccc1NC(=O)C1CCCN(c2ncnc3onc(C)c23)C1 (stereo unspecified)	104	.	96	87
COc1cccc(CN(C)C(=O)c2ccc3c(c2)NC(=O)CS3)c1	.	-18	108	91
N/C(Cc1nc(-c2ccc(Cl)cc2)cs1)=N\O	99	9	124	99
c1ccc2c(N3CCCCC3)nnc(N3CCCCC3)c2c1	105	3	.	.
Cc1cc(NC(=O)C2CCN(S(=O)(=O)c3cccc4nsnc34)CC2)ccc1Br	103	-10	111	94
O=C1COc2ccc(C(=O)COC(=O)c3cccc(S(=O)(=O)N4CCCCC4)c3)cc2N1	.	2	81	98
Cc1cc(C)c(NC(=O)C2CCN(c3nn4c(=O)cc(C)nc4s3)CC2)c(C)c1	103	-22	106	90
O=C(N1CCCc2ccccc21)C(F)(F)F	104	-10	101	88
CCOC(=O)c1cc2ccsc2n1CC(=O)Nc1ccc(Cl)cc1F	104	-21	.	.
O=C(NCCc1ccccc1)c1ccc2c(c1)CCN2S(=O)(=O)c1ccccc1	105	-2	119	100
COCCn1c(CCC(=O)Nc2ccc(OC)c(OC)c2)nc2cccnc21	100	-6	107	93
COc1ccc(CC(=O)N2CCCc3ccccc32)cc1	103	-15	118	95
O=C(c1ccc(Cn2c(=S)[nH]c3ccc(N4CCOCC4)cc3c2=O)cc1)N1CCC(N2CCCCC2)CC1	105	-14	100	102
CN=C1S/C(=C\c2ccc(N3Cc4ccccc4C3)cc2)C(=O)N1C	96	.	94	41
O=C(CSc1nc2sc3c(c2c(=O)[nH]1)CCCC3)NCCN1CCOCC1	105	-11	.	.
O=c1[nH]c(CSc2ncccn2)nc2ccccc12	103	6	109	96
CC1=C(C(=O)N(C)C)C(c2ccccc2C(F)(F)F)NC(=O)N1 (stereo unspecified)	.	-13	94	89
CCOC(=O)c1cc(S(=O)(=O)Nc2ccccc2OCC)[nH]n1	102	.	100	88
O=C(NCCC(=O)N1CCN(C(=O)c2cccs2)CC1)Nc1ccccc1	.	-16	74	88
Cc1ccc(Cn2c(CNC(=O)c3ccccc3)nc3ccccc32)cc1	101	.	116	78
O=C(O)CCc1ccco1	101	-4	113	86
Cc1ccc(CNc2nc(-c3ccco3)nn2C(=O)c2ccccc2[N+](=O)[O-])cc1	99	1	100	84
CCOC(=O)N1CCN(c2ncc3c(n2)CC(c2ccccc2O)CC3=O)CC1 (stereo unspecified)	105	-39	101	91
Later entries:
SMILES	GIV-Gai inh	HCMV UL50-53 inh	Sa growth 42C	Sa growth 42C second temp
CC(=O)Nc1ccc(Oc2nc(-c3ccccc3F)nc3ccccc23)cc1	102	-6	96	87
Cc1cccc(OCCSc2nc3ccc(NC(=O)c4cccs4)cc3s2)c1	102	5	95	67
CCc1ccc2ncc(S(=O)(=O)c3ccccc3)c(N(CC)CC)c2c1	99	-18	.	.
O=C(NCCc1c[nH]c2ccccc12)c1noc2c1CSc1ccccc1-2	102	-5	.	.
CCC(C)NC(=O)Cn1c(=O)ccc2cc(S(=O)(=O)N3CCCC3)ccc21 (stereo unspecified)	100&104	.	94	88
Cc1csc2nc(-c3cccc(NC(=O)c4ccccc4F)c3)cn12	99	.	88	79
O=S(=O)(c1ccc(NC(=S)Nc2ccc3c(c2)OCO3)cc1)N1CCOCC1	106	-8	121	94
CCOC(=O)N1CCC(=Nn2c(CC)n[nH]c2=S)CC1	.	-6	89	93
CC1CCCCN1S(=O)(=O)c1cn(C)c(=O)n(C)c1=O (stereo unspecified)	102	-27	103	89
CCn1nccc1C(=O)Nc1ccc(Cl)cc1Cl	102	-29	101	88
CCOc1ccc(NC(=O)C2NC(=O)CC2c2ccccc2)cc1 (stereo unspecified)	100	-9	89	83
CCOC(=O)c1c(C2CC2)csc1N	.	0	89	94
COc1ccc(NC(=O)c2c(N)c(C(=O)c3ccc(C)cc3)n3ccccc23)cc1OC	104	-3	115	91
CC(Sc1nc(-c2ccccc2)c(C#N)c(=O)[nH]1)C(=O)Nc1ccccc1 (stereo unspecified)	102	-5	100	90
COc1ccc(C2=NOC(C(=O)N3CCN(C)CC3)C2)cc1 (stereo unspecified)	99	-30	107	88
Cc1c(-c2nc(-c3ccc4c(c3)[nH]c(=O)n4C)no2)cccc1[N+](=O)[O-]	99	.	101	90
CN(C)C(CNC(=O)c1ccccc1C(F)(F)F)c1ccco1 (stereo unspecified)	.	-42	100	80
O=C1/C(=C/C2CCCCC2)CCCc2ccccc21	96	-48	101	88
Cn1c(=O)[nH]c(=O)c2c1nc(N1CCCCC1)n2CCO	104	-6	.	.
CC(=O)NC1C(OCc2ccccc2)OC(CO)C(O)C1OCc1ccccc1 (stereo unspecified)	102	-4	89	93

Sorted by SMILES length (smallest number first): some entries from above.
SMILES	GIV-Gai inh	HCMV UL50-53 inh	Sa growth 42C	Sa growth 42C second temp
Cc1cccc(-n2[nH]nnc2=S)c1	.	3	90	75
O=C(N1CCCc2ccccc21)C(F)(F)F	104	-10	101	88
O=c1[nH]c(CSc2ncccn2)nc2ccccc12	103	6	109	96
S=c1nc(CCCCc2nc(=S)[nH][nH]2)[nH][nH]1	100	-39	98	74
CCC1Oc2ccc(C)cc2N(CC(=O)NCCc2ccccc2)C1=O (stereo unspecified)	103	.	120	85
CCOC(=O)N1CCC(Nc2nc3ccccc3c3nnc(C)n23)CC1	103	17	103	99
O=C(c1cnc2sccn2c1=O)N1CCN(c2cccc(Cl)c2)CC1	101	-1	.	.
COCCn1c(CCC(=O)Nc2ccc(OC)c(OC)c2)nc2cccnc21	100	-6	107	93
O=C(NCCc1c[nH]c2ccccc12)c1noc2c1CSc1ccccc1-2	102	-5	.	.
O=S(=O)(c1ccc(NC(=S)Nc2ccc3c(c2)OCO3)cc1)N1CCOCC1	106	-8	121	94
CC(Sc1nc(-c2ccccc2)c(C#N)c(=O)[nH]1)C(=O)Nc1ccccc1 (stereo unspecified)	102	-5	100	90
CCOc1ccc(NC(=O)Cn2ccn(-c3ccc(F)c(F)c3)c(=O)c2=O)cc1	97	8	102	95
CCc1cc2c(cc3n2CC(C)(C(=O)NC2CCCCC2)N(CCCOC(C)C)C3=O)s1 (stereo unspecified)	104	9	.	.
O=C1COc2ccc(C(=O)COC(=O)c3cccc(S(=O)(=O)N4CCCCC4)c3)cc2N1	.	2	81	98
CC(=O)N1CCN(S(=O)(=O)c2cccc(C(=O)OCC(=O)N3N=C(c4ccc(C)cc4)CC3c3ccco3)c2)CC1 (stereo unspecified)	.	-9	110	96

Going on with the list:
SMILES	GIV-Gai inh	HCMV UL50-53 inh	Sa growth 42C	Sa growth 42C second temp
CCC(=O)N1c2ccccc2-c2nnc(SC)nc2OC1c1ccccc1F (stereo unspecified)	99	-86	82	85
Cc1csc2nc(CSc3nnc(-c4cc5c(s4)CCC(C)C5)o3)cc(=O)n12 (stereo unspecified)	.	-22	81	88
COC(=O)c1ccccc1NC(=O)c1ccoc1C	108	-7	102	91
COc1ccc(NC(=O)CCc2nnc3n(C)c(=O)c4sccc4n23)cc1	100	-35	95	103
Cc1cnc(SCc2cnc(C)nc2N)nc1	101	0	105	97
CC(C)c1ccc(NC(=O)CN2C(=O)COc3ccc(S(=O)(=O)N4CCCCC4)cc32)cc1	100	.	102	81
CCCCC(=O)NC1(C(F)(F)F)C(=O)Nc2c1c(=O)[nH]c(=O)n2-c1ccc(C)c(C)c1 (stereo unspecified)	101	-19	103	90
CC1CCCC(C)N1C(=O)COC(=O)CCc1ccccc1 (stereo unspecified)	.	-6	90	100
O=C(c1cnn2c1NC(c1cccs1)CC2C(F)(F)F)N1CCN(C(c2ccccc2)c2ccccc2)CC1 (stereo unspecified)	96	3	.	.
O=C(NCc1csc(-c2cccs2)n1)c1cccc2c1OCCCO2	107	-5	102	87
O=C(Cc1csc(NC(=O)c2ccccc2)n1)Nc1ccc2c(c1)OCCO2	106	-26	.	.
O=C(Oc1ccc(-c2ccccc2)c(F)c1)c1ccco1	109	15	.	.
NC(=O)CSc1nnnn1-c1ccccc1	.	-21	94	86
CN1C(=S)N(c2ccc(Cl)cc2)C(=O)/C1=C/c1ccccc1O	94	.	53	21
Cc1cccc(NC(=O)C2(C)Cc3ccccc3C(=O)O2)c1 (stereo unspecified)	105	-20	108	85
O=C(Nc1ccc2oc(-c3ccc4ccccc4c3)nc2c1)c1ccccc1F	103	-12	85	93
CCCn1c(=O)c2sccc2n2c(CCCC(=O)Nc3ccc(C)c(F)c3)nnc12	103	.	119	90
CCOC(=O)c1sc(Nc2ccc(C)cc2C)nc1C	102	.	85	84
CCC(=O)Nc1ccccc1-c1nc2ccccc2n(CC(=O)c2ccc(Cl)cc2)c1=O	99	-6	87	81
O=C(CCCn1sc2ccccc2c1=O)NCc1cccs1	99	.	83	71
CN(C)c1cccc(-c2nn3c(-c4ccccn4)nnc3s2)c1	109	-27	.	.
COc1ccccc1NC(=O)COC(=O)Cc1cccc2ccccc12	.	-7	100	94
c1cncc(-c2noc(-c3cccs3)n2)c1	99	.	94	78
Nc1ccc2c(c1)OC1(CCCCC1)O2	108	-23	108	81
FC(F)(F)c1ccc(Sc2n[nH]c(C(F)(F)F)n2)nc1	105	-2	61	36
COc1cc(NC(=O)C(C)OC(=O)C23CC4CC(CC(NC(C)=O)(C4)C2)C3)cc(OC)c1 (stereo unspecified)	.	-9	105	102
